Source: PubChem
Anesthetic bind – candidate novel general anesthetic via apoferritin binding; apoferritin/1-aminoanthracene competitive binding, fluorescence; Potency, µM (highest dose often 77.5 µM), for the others: at the highest dose activity change, negative = displacement, actives largely listed as inhibitors; actives 0.074% (n = 350,000); note: nearly all actives have a fitted effect of over 20% in size
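Steps: apoferritin (10 uM) was premixed with half-saturated 1-AMA in PBS, compounds were pin-transferred, plates stood 10 min at room temperature, fluorescence was read at 380/535 nm, and curves were fitted with a Hill equation.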
BLM inh – inhibitors of human Bloom syndrome helicase BLM. Potency, µM (highest dose often 56.1 µM), for the others: at the highest dose activity change, negative = inhibition, most hits filed as inhibitors. AID 2528. recombinant BLM DNA unwinding, fluorescence dequenching. actives 0.2% (n = 350,000);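 note: plate controls were vehicle for no effect and no enzyme for full effect; nearly all actives have a fitted effect of over 35% in size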
G9a inh – blocks human histone lysine methyltransferase G9a. Q96KQ7. G9a H3K9 monomethylation, AlphaScreen, 2 h. Potency, µM (doses to about 102 µM), inactives show at the top dose activity, negative = inhibition, actives largely listed as inhibitors. actives 8.8% (n = 350,000); note: nearly all actives have a fitted effect of over 75% in size
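G9a (20 nM) was preincubated 15 min with compound, then reacted 2 h at room temperature with 500 nM biotin-H3K9 peptide and 20 µM SAM. Monomethyl-H3K9 detected by AlphaScreen using anti-H3K9me1 antibody.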
* = called active by the depositor; ? = inconclusive; · = no result given; & = joins results of further samples; [ ] = another dose, or the depositor's remark. Calls come from the whole dose curve; as a rule, active = well fitted curve in the direction sought with a large enough effect; inconclusive = small, poorly fitted or top-dose-only effect, or another doubt; inactive = no such curve, though single readings can be large; an effect the other way counts as inactive or inconclusive. Unless noted, % is set by controls: 0 for no effect and ±100 for the full control effect; potency is the fitted concentration of half-maximal effect. The list is partial, so the mix of outcomes need not match the whole.

1	CC(/C=N/n1c(-c2n[nH]c3c2CCC3)n[nH]c1=S)=C\c1ccco1
  Anesthetic bind: 9%	BLM inh: -19%	G9a inh: ·

2	N#Cc1ccc(CNC(=O)N2CCOCC2)cc1
  Anesthetic bind: 4%	BLM inh: -3%	G9a inh: 24%

3	NC(=O)C1CCN(C(=O)Nc2ccccc2)CC1
  Anesthetic bind: -2%	BLM inh: 0%	G9a inh: -4%[59 µM]

4	O=C(O)C(O)c1ccccc1 (stereo unspecified)
  Anesthetic bind: -8%&-6%&-1%	BLM inh: 3%&-3%&7%&-3%	G9a inh: ?

5	CN1CCN(C(=O)c2cc3cc(Cl)ccc3[nH]2)CC1
  Anesthetic bind: -5%&-1%	BLM inh: 0%&5%	G9a inh: -12%

6	Cc1ccnc2nc(C(=O)Nc3nnc(-c4ccccc4)o3)nn12
  Anesthetic bind: -15%	BLM inh: -8%	G9a inh: ?

7	O=C(NCc1ccco1)c1ccc2c(=O)n(Cc3ccco3)c(SCC(=O)N3CCCC3)nc2c1
  Anesthetic bind: ?	BLM inh: -17%	G9a inh: 79µM*

8	COc1ccc(CNC(=O)Cc2ccc(NC(=O)C3=C(C)OCCS3)cc2)cc1
  Anesthetic bind: -8%	BLM inh: -22%	G9a inh: -12%

9	O=C(O)c1cccc(-n2cccc2/C=N/O)c1
  Anesthetic bind: -4%	BLM inh: 1%	G9a inh: ?

10	O=C(COC(=O)CCC(=O)c1cccs1)NCc1ccco1
  Anesthetic bind: 3%	BLM inh: ?	G9a inh: ?

Sorted by value in BLM inh (descending): some entries from above
cpd | mol | BLM inh
9 | O=C(O)c1cccc(-n2cccc2/C=N/O)c1 | 1%
2 | N#Cc1ccc(CNC(=O)N2CCOCC2)cc1 | -3%
7 | O=C(NCc1ccco1)c1ccc2c(=O)n(Cc3ccco3)c(SCC(=O)N3CCCC3)nc2c1 | -17%
1 | CC(/C=N/n1c(-c2n[nH]c3c2CCC3)n[nH]c1=S)=C\c1ccco1 | -19%
8 | COc1ccc(CNC(=O)Cc2ccc(NC(=O)C3=C(C)OCCS3)cc2)cc1 | -22%

More results follow.
11	CNC(=S)N/N=C/c1ccc(-c2ccc(C(=O)O)cc2)o1
  Anesthetic bind: 12%	BLM inh: -16%	G9a inh: ·

12	CC1=C/C(=C\c2ccc(Br)o2)C(=O)O1
  Anesthetic bind: 3%	BLM inh: 34%[activator]	G9a inh: ?

13	CCOc1cc(/C=N/NC(=O)c2ccc(-c3csc(Nc4ccc(C)cc4)n3)cc2)ccc1OCC(=O)O
  Anesthetic bind: -1%	BLM inh: 16µM*	G9a inh: 45µM*

14	CC(/C=N/n1c(-c2cc(C)[nH]n2)n[nH]c1=S)=C\c1ccco1
  Anesthetic bind: 5%	BLM inh: 0%	G9a inh: ·

15	CSc1ccc(NC(=O)Nc2ccc(C(=O)NCC(=O)O)cc2)cc1
  Anesthetic bind: 2%	BLM inh: -18%	G9a inh: 35µM*

16	CCOc1ccc(C(C)=O)cc1N1C(=O)C2C3C=CC(C3)C2C1=O (stereo unspecified)
  Anesthetic bind: -6%	BLM inh: 1%	G9a inh: 16%[12.7 µM]

17	Cc1nnc2ccc(-c3ccc(NC(=O)Cc4cccs4)cc3)nn12
  Anesthetic bind: -8%	BLM inh: -12%	G9a inh: ·

18	C=CCn1c(=S)[nH]c2scc(-c3ccco3)c2c1=O
  Anesthetic bind: -9%	BLM inh: ?	G9a inh: ·

19	O=C1C2CC=C(Cl)CC2C(=O)N1c1ncn[nH]1 (stereo unspecified)
  Anesthetic bind: -22%	BLM inh: 3%	G9a inh: ?

Complete entries, quoted from the list. Screens in order: Anesthetic bind	BLM inh	G9a inh
`CCOc1ccc(C(C)=O)cc1N1C(=O)C2C3C=CC(C3)C2C1=O` (stereo unspecified) is listed with -6%	1%	16%[12.7 µM]
`CC1=C/C(=C\c2ccc(Br)o2)C(=O)O1` is listed with 3%	34%[activator]	?
`C=CCn1c(=S)[nH]c2scc(-c3ccco3)c2c1=O` is listed with -9%	?	·
`Cc1nnc2ccc(-c3ccc(NC(=O)Cc4cccs4)cc3)nn12` is listed with -8%	-12%	·
`CC(/C=N/n1c(-c2cc(C)[nH]n2)n[nH]c1=S)=C\c1ccco1` is listed with 5%	0%	·
